StopGo FLuc – lowers the firefly signal of an FMDV 2A StopGo reporter. HEK cells with a luciferase reporter of 2A StopGo recoding. 0.23% of 120,000 active. Potency, µM (highest dose often 57.5 µM), for the others: at the top dose signal change, negative = less light. AID 1745856; active = well fitted falling curve with a large enough effect; inconclusive = small, poorly fitted or top-dose-only effect; inactive = no such curve, though single readings can be large or run the other way; also: nearly all actives have a fitted effect of over 60% in size; overnight with compound
2A Renilla – FMDV 2A StopGo reporter, Renilla signal | HEK cells with a luciferase reporter of 2A StopGo recoding | Potency, µM (doses to about 57.5 µM), inactives show at the highest dose signal change, negative = less light | 0.32% of 120,000 active | AID 1745857; active means well fitted falling curve with a large enough effect; inconclusive means small, poorly fitted or top-dose-only effect; inactive means no such curve, though single readings can be large or run the other way; also: nearly all actives have a fitted effect of over 55% in size; overnight with compound
An asterisk follows results filed as active; ? = inconclusive; & = joins results of further samples; [ ] = another dose, or the depositor's remark. % is scaled to controls: 0 for no effect and ±100 for the full control effect; potency is read from the fitted curve at half-maximal effect.

Start of the listing, in advance:
structure | StopGo FLuc | 2A Renilla
N#CC(Cc1cccnc1)C(=O)Nc1ccccc1Cl (stereo not given) | 8.2% | 17.9%
Nc1nccnc1C(=O)Nc1cccc(NC(=O)c2ccccc2)c1 | 32.7%[activator] | -8.9%
CCCN(C(=O)Cn1ncc2c(=O)oc3ccccc3c21)c1cccc(C)c1 | -9.6% | -6.9%
COC(=O)CSc1sc(=O)sc1SC | 9.3% | 1.8%
CC(NCc1cccnc1)C12CC3CC(CC(C3)C1)C2 (stereo not given) | 0.8% | -1.9%
C1CCC(NCC2CCN(C3CC3)C2)C1 (stereo not given) | 18.1% | 4.7%
Cc1cccc(-n2c(C)c(C)c3c2ncn2nc(-c4ccncc4)nc32)c1C | 10.4% | -8.0%
CC(=O)c1ccc(CC(=O)O)s1 | 4.5% | 10.7%
O=C(Nc1cc(C(F)(F)F)ccc1Cl)/C(=C/c1ccc(F)cc1)c1ccc(-c2ccccc2)cc1 | 6.6% | 6.0%
O=C(CCCCl)c1ccc2c(c1)OCCO2 | 59.6%[activator] | -15.4%
COc1ccccc1N1CCN(C(=O)CN2C(=O)COc3ccc(S(=O)(=O)N4CCC(C)CC4)cc32)CC1 | -10.3% | -7.5%
COC(=O)c1cc(C)nc2c1c(=O)nc(SCc1ccccc1F)n2C1CC1 | 0.0% | -13.8%
COC(=O)c1c(-c2cccs2)csc1NC(=O)COc1ccc(C(C)C)cc1 | 0.0% | -10.4%
CCOc1ccc(C(=O)c2cn(CC(=O)Nc3ccc(F)cc3)c3cc4c(cc3c2=O)OCO4)cc1 | ? | -10.1%
COc1ccccc1NC(=O)C(C)N(c1ccccc1)S(C)(=O)=O (stereo not given) | -2.3% | 3.6%
O=C(O)C(c1c[nH]c2cc(F)ccc12)N1CCc2ccccc2C1 (stereo not given) | -8.1% | -11.1%
CC(C)(C)NC(=O)c1cc(-c2ccccc2Cl)nc2ccccc12 | -0.9% | 17.8%
N#Cc1ccc(C(=O)N2CCC(C(=O)N3CCc4ccccc4C3)CC2)cc1 | 10.5% | -3.8%
COc1ccccc1NC(=O)CSc1nc2c(c(=O)[nH]1)CN(Cc1ccc3c(c1)OCO3)CC2 | -9.0% | -13.4%
CCn1nc(C(=O)Nc2ccc3c(c2)OCO3)c2ccccc2c1=O | 35.1%[activator] | 1.2%

This part in full (from the top)
structure | StopGo FLuc | 2A Renilla
N#CC(Cc1cccnc1)C(=O)Nc1ccccc1Cl (stereo not given) | 8.2% | 17.9%
Nc1nccnc1C(=O)Nc1cccc(NC(=O)c2ccccc2)c1 | 32.7%[activator] | -8.9%
CCCN(C(=O)Cn1ncc2c(=O)oc3ccccc3c21)c1cccc(C)c1 | -9.6% | -6.9%
COC(=O)CSc1sc(=O)sc1SC | 9.3% | 1.8%
CC(NCc1cccnc1)C12CC3CC(CC(C3)C1)C2 (stereo not given) | 0.8% | -1.9%
C1CCC(NCC2CCN(C3CC3)C2)C1 (stereo not given) | 18.1% | 4.7%
Cc1cccc(-n2c(C)c(C)c3c2ncn2nc(-c4ccncc4)nc32)c1C | 10.4% | -8.0%
CC(=O)c1ccc(CC(=O)O)s1 | 4.5% | 10.7%
O=C(Nc1cc(C(F)(F)F)ccc1Cl)/C(=C/c1ccc(F)cc1)c1ccc(-c2ccccc2)cc1 | 6.6% | 6.0%
O=C(CCCCl)c1ccc2c(c1)OCCO2 | 59.6%[activator] | -15.4%
COc1ccccc1N1CCN(C(=O)CN2C(=O)COc3ccc(S(=O)(=O)N4CCC(C)CC4)cc32)CC1 | -10.3% | -7.5%
COC(=O)c1cc(C)nc2c1c(=O)nc(SCc1ccccc1F)n2C1CC1 | 0.0% | -13.8%
COC(=O)c1c(-c2cccs2)csc1NC(=O)COc1ccc(C(C)C)cc1 | 0.0% | -10.4%
CCOc1ccc(C(=O)c2cn(CC(=O)Nc3ccc(F)cc3)c3cc4c(cc3c2=O)OCO4)cc1 | ? | -10.1%
COc1ccccc1NC(=O)C(C)N(c1ccccc1)S(C)(=O)=O (stereo not given) | -2.3% | 3.6%
O=C(O)C(c1c[nH]c2cc(F)ccc12)N1CCc2ccccc2C1 (stereo not given) | -8.1% | -11.1%
CC(C)(C)NC(=O)c1cc(-c2ccccc2Cl)nc2ccccc12 | -0.9% | 17.8%
N#Cc1ccc(C(=O)N2CCC(C(=O)N3CCc4ccccc4C3)CC2)cc1 | 10.5% | -3.8%
COc1ccccc1NC(=O)CSc1nc2c(c(=O)[nH]1)CN(Cc1ccc3c(c1)OCO3)CC2 | -9.0% | -13.4%
CCn1nc(C(=O)Nc2ccc3c(c2)OCO3)c2ccccc2c1=O | 35.1%[activator] | 1.2%
CCOC(=O)c1c(-c2ccccc2)csc1NC(=O)c1cc(-c2ccc(C)c(F)c2)on1 | -11.8% | -2.4%
O=C(NCc1ccc(F)cc1)c1ccc(CS(=O)Cc2ccc(Cl)cc2)o1 (stereo not given) | ? | ?
CCc1nnc(SCc2nc(-c3cccc(C)c3)oc2C)c2cc3sc(C)cc3n12 | -7.7% | 0.1%
Cc1cc(Nc2ccc(C)c(Cl)c2)n2nc(-c3ccccc3)nc2n1 | -13.7% | -12.8%
COc1ccccc1-c1cc(C(=O)Nc2c(C)nn(Cc3ccc(Cl)cc3)c2C)no1 | ? | ?
COc1ccc(/C=C/c2nc(C#N)c(NCc3ccc4c(c3)OCO4)o2)cc1OC | 1.0% | 0.0%
CCOc1cc(N)c(C#N)cc1OCC | 10.6% | 19.9%
CCOC(=O)c1cc(-c2ccc(OC)cc2)n(CCC(=O)NCCc2ccc(OCC)c(OCC)c2)c1C | -22.3% | -2.8%
O=C(Cc1c[nH]c2ccccc12)OCc1ccc(Cl)c(Cl)c1 | -7.2% | -5.8%
Cc1c(-c2ccccc2)oc2c(C(=O)NC3CCN(C(C)C)CC3)cccc2c1=O | 7.4% | -8.5%

In another format: results already given.
> N#CC(Cc1cccnc1)C(=O)Nc1ccccc1Cl (stereo not given)
  StopGo FLuc: 8.2% | 2A Renilla: 17.9%

> COC(=O)CSc1sc(=O)sc1SC
  StopGo FLuc: 9.3% | 2A Renilla: 1.8%

Further results:
structure | StopGo FLuc | 2A Renilla
Brc1ccc(-c2noc(Cc3cccs3)n2)o1 | 249.9%[activator] | 19.2%
COc1cccc(NC(=O)COC(=O)c2ccc3ccccc3n2)c1 | 18.8% | -17.2%
Cc1ccc(-n2nc(C)c3c(C(=O)NC4CCN(Cc5ccccc5)CC4)cc(C)nc32)cc1 | -2.9% | -9.7%
CC(C)CCN(Cc1ccco1)C(=O)Cn1ncc2c([nH]c3ccccc32)c1=O | -10.6% | -21.1%
c1ccc(OCc2nn3c(-c4ccncc4)nnc3s2)cc1 | -1.0% | -9.4%
C=CCOc1ccc(C(=O)Nc2cccc(C)c2)cc1 | 106.8%[activator] | -15.1%
CC(NC(=O)CCc1c[nH]c2ccccc12)c1ccco1 (stereo not given) | -8.1% | 7.2%
O=C(NCc1ccc(F)cc1)c1ccc2c(O)c(S(=O)(=O)c3ccccc3)c(=O)[nH]c2c1 | -15.2% | 59.2%[activator]
CCOc1ccc(-c2nn(-c3ccccc3)cc2C2NC(=O)NC(C)=C2C(=O)OC)cc1 (stereo not given) | 0.0% | 22.8%
Cc1csc(/C(C#N)=C\c2cccc3c2OCCCO3)n1 | 23.1% | 15.6%
CCc1nn(CC(=O)NCc2ccco2)c(=O)c2cc3cc(F)ccc3n12 | -7.7% | 11.2%
O=C(Cc1cccs1)N(Cc1cccs1)C1CC1 | 8.7% | 2.7%
CN(C)c1cccc(C(=O)NNC(=O)c2cccc(Cl)c2)c1 | 169.7%[activator] | 5.3%[1.06 µM]
CCOc1ccc(NC(=O)c2cnc(SC)nc2C(F)(F)F)cc1 | 12.4% | 14.3%
Cc1ccc(S(=O)(=O)Nc2nc3ccccc3nc2Nc2cccc(F)c2)cc1 | 11.6% | 11.6%
CCOc1ccc(Sc2cc(C(=O)NCCc3ccc(OC)c(OC)c3)c3ccccc3n2)cc1 | -25.2% | -11.8%
O=C(Nc1ccc(C(=O)OCc2cc(=O)n3nc(C4CC4)sc3n2)cc1)c1ccc(F)cc1 | -14.1% | -5.1%
CC(C)(C)C(=O)NCCc1csc2nc(-c3ccc(F)cc3)nn12 | 2.2% | -21.1%
O=C(c1ccc2c(c1)N(Cc1ccc(F)cc1)C(=O)c1ccccc1S2(=O)=O)N1CCN(c2ccccn2)CC1 | ? | -14.9%
COc1ccccc1CNC(=O)CCCn1nc(C)c2sc3ccccc3c2c1=O | -22.5% | -0.6%
Cn1c(=O)c2c(nc(N3CCN(C(=O)/C=C/c4ccccc4)CC3)n2Cc2ccccc2)n(C)c1=O | 1.9% | -6.5%
COc1ccccc1N1CCN(C(=O)c2cc(-c3ccc(C)c(F)c3)on2)CC1 | 19.7% | -7.4%
COc1cccc(C(=O)NCC(=O)N(C)CC(=O)Nc2cccc(F)c2)c1 | 1.6% | -9.1%
CCCOc1c(Br)cc(C(=O)N2CCN(c3ncccn3)CC2)cc1OC | 8.8% | 29.8%
Cc1cc(C(=O)CSc2nnc(-c3ccncc3)n2-c2ccc(F)cc2)c(C)n1C1CC1 | -9.2% | -2.8%
CSc1ccccc1NC(=O)CN(C)C(=O)Cn1[nH]c(=O)c2ccccc2c1=O | -6.4% | -5.4%
Cc1ccc(C(=O)NNC(=O)COC(=O)c2ccccc2SCc2ccc(C#N)cc2)cc1 | 7.3% | 12.0%
COc1ccc2[nH]cc(CCNC(=O)c3cnn(-c4ccc(C)cc4)c3C3CCN(C(=O)OC(C)(C)C)CC3)c2c1 | -5.3% | -8.3%
COC(=O)c1sc(-c2ccccc2)cc1NC(=O)c1cccc(F)c1 | -11.8% | -10.0%
CCC(C)(C)NS(=O)(=O)c1cc(-c2cc(C)no2)ccc1C | 12.4% | 224.8%[activator]

The list continues:
structure | StopGo FLuc | 2A Renilla
O=S(=O)(c1ccc2nc(N3CCN(c4ccccc4)CC3)ccc2c1)N1CCCC1 | 2.8% | -3.1%
Cn1c(=O)[nH]c(=O)c2c1nc(N1CCCC1)n2CC(O)CO (stereo not given) | 13.8% | -0.8%
CCOC(=O)N1CCc2c(sc3c2c(=O)n(Cc2ccccc2)c(=O)n3CC(=O)Nc2c(C)cccc2C)C1 | -7.2% | -14.0%
COc1ccccc1-c1nc2c(c(SCC(=O)Nc3ccccc3F)n1)Cc1c(CO)cnc(C)c1O2 | -23.6% | -2.3%
Cc1cnc(C(=O)N(Cc2cccs2)C2CC2)cn1 | 1.9% | 4.5%
CN(Cc1ccc2ccccc2c1)C(=O)CCc1ncc(-c2ccccc2F)o1 | 128.1%[activator] | 9.0%
CCc1cccc(NC(=O)C(c2ccccc2)N2Cc3ccccc3C2=O)c1 (stereo not given) | -3.8%&-18.9% | 156.8%&180.0%[activator]
Cc1ccc(-n2nnnc2SCc2nc3ccccc3o2)c(C)c1 | 9.9% | 12.1%
CCN(c1ccccc1)S(=O)(=O)c1nnc(NC(=O)c2cccs2)s1 | -4.4% | 85.4%[activator]
CCN1CCOC(=O)C1CC(=O)Nc1ccc(C)c(Cl)c1 (stereo not given) | -24.7% | -23.4%
CCc1c(C)nc2c(Cl)cccc2c1Cl | 8.8% | -6.2%
CC(C)(C)c1cc(O)cc(C(C)(C)C)c1 | -12.5% | -7.9%
CCOC(=O)c1sc2cccc(F)c2c1COC(=O)c1occc1C | 1.5% | 4.3%
CNC(=O)c1cc(Nc2nnc(-c3ccc(O)cc3)c3ccccc23)ccc1OC | 26.9% | 52.3%[activator]
COc1ccc(/C=C(\C#N)c2nc3ccccc3n2C)c(OC)c1 | 212.8%[activator] | ?
COc1ccc(CNC(=O)c2cc(-c3ccc(OC)cc3)nc3ccccc23)cc1 | 56.2%[activator] | 12.4%
O=C(NCc1cccc(Cl)c1)c1cc2ccc3cccnc3c2[nH]1 | 25.6% | 22.2%
O=C(c1cn(CCCOc2ccccc2Cl)c2ccccc12)C(F)(F)F | 37.7%[activator] | 10.2%
NC(=O)c1ccccc1NC(=O)c1ccc2ccccc2n1 | 295.5%[activator] | 23.0%
Cc1cccc(-n2c(/C=C/c3c(C)[nH]c4ccccc34)nc3ccccc3c2=O)c1 | -15.9% | -11.4%
COc1ccc(C(=O)Nc2cc3c(cc2C#N)OCO3)cc1S(=O)(=O)N1CCCCC1 | -3.6% | 29.1%
CC(NC(=O)CSc1n[nH]c(-c2ccccc2Cl)n1)c1nc2ccccc2n1C (stereo not given) | -16.5% | 15.9%
Cc1ccc(S(=O)(=O)NCC2CCC(C(=O)NCCCOC(C)C)CC2)cc1 (stereo not given) | -14.4% | 23.1%
COC(=O)c1ccc(CNC(=O)C(C)(C)c2ccccc2)cc1 | 0.2% | 7.2%
CCc1ccccc1OCCSc1nc(-c2cccs2)nc2cc(=O)[nH]n12 | -2.3% | -10.1%
CCN(CC)C(=O)c1sc2c(c1C)c(=O)n(Cc1ccccc1)c(=O)n2CC(=O)Nc1ccc(OC)cc1 | -9.1% | 51.5%[activator]
O=[N+]([O-])c1ccc(NC2CCCC2)c2ccncc12 | -3.3% | -16.4%
O=C(COc1ccc(F)cc1)Nc1nnc(SCc2cc(=O)n3ccccc3n2)s1 | -21.0% | -12.3%

Compound activity as filed in PubChem BioAssay.
